# Prx2 Sm inh = inhibitors of Schistosoma mansoni peroxiredoxin 2. S. mansoni Prx2 activity coupled to TGR/GSH (TGR is thioredoxin glutathione reductase), NADPH fluorescence loss, qHTS; some inactives read as strong as hits. Potency, µM. 0.07% of 65,000 active; active means full or partial inhibition curve with a strong effect at the top dose; inconclusive means weaker partial or single-point curve; inactive means no accepted curve; further: series up to 57 µM; many of its hits are not listed in these tables
#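 Prx2 inhibition was measured as reduced NADPH consumption when electrons flowed from NADPH through TGR and glutathione to Prx2 and H2O2. Plates were read kinetically over 8 min; enzyme reagents were held at 4 deg C during dispensing.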
# Anthrax LT inh = blocks cellular internalization of anthrax lethal toxin. Cells, anthrax lethal toxin internalization, FRET ratio (460/530). Potency, µM (highest dose often 40 µM), without a hit: at the highest dose activity change, negative = inhibition, most hits filed as inhibitors. 0.67% of 70,000 active. AID 912; active = well fitted falling ratio curve with the 530 nm signal flat; inconclusive = other ratio curves, or a change in one channel alone; inactive = flat curves in the ratio and both channels; the % refers to the ratio; further: on the % scale 0 is the no-effect control and ±100 the full control effect; nearly all actives have a fitted effect of over 50% in size; tested in ME-180 cells; beta-lactamase reporter
# The depositor's hits bear a star; ? = inconclusive; nt = no result given; [ ] = dose if it differs, or a comment. Potency means the concentration at half of the fitted maximal effect. A portion of the library, so the mix of outcomes need not match the whole.
SMILES,Prx2 Sm inh,Anthrax LT inh
O=C(Nc1ccc2c(c1)OCCO2)C1CCN(c2cnccn2)CC1,>57,8%
COC(=O)c1ccc(-c2nc(-c3ccc(Br)o3)no2)cc1,>57,-11%
Cc1oc(-c2ccc(Cl)cc2)nc1CSCC(=O)NCCCN1CCOCC1,>57,-12%
Cc1ccc(OCC(=O)Nc2ccc(-c3nc4ncccc4o3)cc2)cc1,>57,1%
CCS(=O)(=O)N1CCCC(C(=O)NCc2ccc3c(c2)OCO3)C1 (centres undefined),>57,25%
CCC(=O)NC(c1ccccc1)c1nc2ccccc2[nH]1 (centres undefined),>57,5%
COc1cc(C(=O)O)nc2ccccc12,>57,4%
COc1cccc(-c2nccc(NCc3cccc(C)c3)n2)c1,>57,?
Cn1c(=O)oc2cc(S(=O)(=O)NCCC(=O)N3CC=C(c4ccccc4)CC3)ccc21,>57,0%
COc1ccc(-c2c3c(=O)n(C)c(=O)n(C)c3cn2Cc2cccnc2)cc1,>57,-17%
O=C(O)CC(c1ccccc1)c1ccccc1,>57,-2%
CCNc1ncc2nc(-c3cn(C)c4ccccc34)c(=O)n(-c3ccc(OC)cc3)c2n1,>57,?
CCOC(=O)c1sc(NC(=O)c2ccc(CC)s2)nc1C,>57,?
CCN(CC)CCn1c(-c2ccccc2)nc2c(NCc3ccccc3)nc(C)nc21,nt,-2%
O=C(Cn1cc2c(n1)CCCCC2)NCc1ccccc1,>57,7%
Cc1nc(CSc2nc3[nH]ncc3c(=O)n2-c2ccccc2)cs1,>57,nt
COc1ccc(S(=O)(=O)N2CCN(S(=O)(=O)c3ccc(C(F)(F)F)cc3)CC2)cc1C,>57,13%
Cc1ccc(NCc2nnc(SCC(=O)Nc3cccc(O)c3)n2CC2CCCO2)c(C)c1 (centres undefined),>57,-4%
O=C(NCCc1ccccc1)c1cccnc1N1CCCCCC1,>57,-3%
Cc1ccc(Br)cc1S(=O)(=O)N1CCN(c2ccccc2)CC1,>57,?
Cn1c(C(=O)N2CCCC2)cc2c(=O)n(C)c3ccccc3c21,>57,2%
CCOC(=O)/C=C1\SCC(=O)N1CC(=O)Nc1ccccc1OC(F)F,>57,-8%
CC(=O)c1cccc(NC(=O)NCc2ccccn2)c1,>57,4%
Cc1ccc(-n2nc(-c3ccc(N)cc3)cc2N)cc1,>57,?
O=C(c1ccco1)N1CCN(c2ncnc3sc4c(c23)CCC4)CC1,>57,-13%
COc1ccc(N2CCN(c3nc4c(c(=O)[nH]c(=O)n4C)n3Cc3ccccc3Cl)CC2)cc1,>57,0%
CC(=O)n1c2ccccc2c2nc(NC(C)C)sc21,>57,-19%
CCCc1ccc(C(=O)CCC(=O)O)cc1,>57,2%
NC[C@H](O)C1CCCCCCC1,>57,-10%
O=C(NCCc1ccc(Cl)cc1)C1CC(=O)N(C2CCCCC2)C1 (centres undefined),>57,0%
COc1ccc2c(=O)c3c(=O)n(Cc4ccco4)c(C(C)C)nc3oc2c1,>57,4%
Cc1cccc(-n2nnnc2SCn2nnc3ccccc3c2=O)c1,>57,-17%
O=C(O)CCCCCNS(=O)(=O)c1c(Cl)cccc1Cl,>57,7%
O=C(c1c(F)c(F)c(F)c(F)c1F)N1CCN(c2cccc(C(F)(F)F)c2)CC1,>57,?
O=C(Nc1ccc(F)cc1)N1CCC(c2nc3c(nnn3Cc3cccc(Cl)c3)c(=O)[nH]2)CC1,>57,5%
COc1ccc(N2CCN(c3oc(-c4ccccc4OC)nc3C#N)CC2)cc1,>57,?
O=C(NCc1ccco1)C1CCC(N2C(=O)c3ccccc3C2=O)CC1 (centres undefined),nt,-8%
Cc1nc2c(C(=O)NCCc3ccccc3)c[nH]n2c(=O)c1Cl,>57,nt
CC(=O)NS(=O)(=O)c1ccc(NS(=O)(=O)c2ccc(F)cc2)cc1,>57,?
CCOC(=O)N1CCN(C(=O)CN(c2ccc(C)cc2)S(=O)(=O)c2c(C)noc2C)CC1,>57,3%
O=S(=O)(NCc1csc(-c2ccccc2)n1)c1ccc(Cl)s1,>57,?
COc1ccc(NC(=O)CN2c3cccc4cccc(c34)S2(=O)=O)cc1,>57,-23%
CC(=O)NCCn1c(SCc2ccccc2F)nc2ccccc2c1=O,>57,?
COc1ccc(NC(=O)C2CCCN(S(=O)(=O)c3cccc4cccnc34)C2)cc1 (centres undefined),>57,3.2µM*
CC12CCCCC1c1ccccc1C(=NCC(=O)O)N2 (centres undefined),>57,5%
NC(=O)CCCCC(=O)OCCCc1cccs1,>57,-3%
Cn1cccc1Cc1nnc(SCC(=O)Nc2ccc3c(c2)OCCO3)n1CCc1ccccc1,>57,-7%
O=C1c2ccccc2C(=O)N1CSc1nnnn1-c1ccccc1,nt,-2%
CCOC(=O)CSc1nnc(CNC(=O)c2cccs2)n1-c1cccc(C)c1,>57,0%
COC(=O)Cn1c(CN2CCC(Cc3ccccc3)CC2)nc2c1c(=O)n(C)c(=O)n2C,>57,?
CC1(C)CC(CCNC(=O)c2ccc(-n3cnnn3)cc2)CC(C)(C)N1,>57,nt
O=C(O)Cn1cc2c(n1)CCCC2,>57,?
CCn1c(SCC(=O)Nc2cc(C)on2)nnc1-c1cccnc1,>57,3%
CCN1C[C@]2(C)CC[C@@H](O)[C@]34[C@@H]5CC6[C@@H](OC)C[C@@](O)([C@H]5[C@@H]6O)[C@@H](C[C@@H]23)[C@H]14,>57,-12%
COc1ccc(CNc2cc(-c3ccccc3C)ncn2)c(OC)c1,>57,?
O=C(Nc1ccc2c(c1)OCCO2)C1CCCN(S(=O)(=O)Cc2ccccc2)C1 (centres undefined),>57,?
Cc1ccccc1Nc1nc(N)nc(COC(=O)c2cccn2C)n1,>57,5%
O=C(NCc1ccco1)C(C(=O)c1ccccc1)n1ccccc1=O (centres undefined),>57,1%
COc1ccc(-n2nnc3c(=O)n(CC(=O)N4CCCCC4)cnc32)cc1,>57,12%
Cc1ccsc1C(=O)OCC(=O)N1CCOCC1,>57,-3%

# (further entries)
SMILES,Prx2 Sm inh,Anthrax LT inh
CC(C)C[C@@H](CC(=O)N[C@@H](CCCN)CC(=O)N[C@@H]1CCNC[C@H]1C(=O)N[C@H](CC(=O)N[C@@H](CCC(=O)O)CC(=O)O)Cc1c[nH]c2ccccc12)NC(=O)[C@@H]1CNCC[C@H]1N,>57,2%
CCCn1c(C)nc2c(N(CCOC)CCOC)nc(C)nc21,nt,-4%
c1ccc2c[n+](Cc3ccnc4ccccc34)ccc2c1,>57,4%[8 µM]
Cc1ccc(Oc2ccccc2)c(NC=O)c1,>57,0%
CC(=O)Nc1ccc(N(C(=O)c2cnccn2)C(C(=O)NC2CCCCC2)c2ccc(O)cc2)cc1 (centres undefined),>57,2%
CC1(C)OC(=O)NC1=O,>57,-5%[3.58 µM]
Cc1ccsc1C(=O)N1CC(=O)Nc2ccccc21,>57,2%
CCC(c1nnnn1Cc1ccccc1)N1CCN(C(=O)c2ccco2)CC1 (centres undefined),>57,0%
COc1cc(C2c3c(oc4c(C)cc(C)cc4c3=O)C(=O)N2Cc2cccnc2)ccc1O (centres undefined),>57,nt
O=C(CNS(=O)(=O)c1ccc(F)cc1)N1CCN(c2ccc(F)cc2)CC1,>57,-1%
COc1cc(-c2nnc(-c3ccncc3)o2)ccc1OCc1ccccc1,>57,-18%
O=C(Nc1ccccc1)NC1(C(=O)NCc2ccc3c(c2)OCO3)CCCCC1,>57,11%
Cc1cc(NC(=O)c2cnn3c(C(F)F)cc(C4CC4)nc23)no1,>57,8%
Cc1ccc(CN2C(=O)CCC2C(=O)NCCN2CCOCC2)cc1 (centres undefined),>57,4%
CCc1sc(NS(C)(=O)=O)nc1-c1ccccc1,>57,6%
COC(=O)c1c[nH]n2c(=O)cc(C)nc12,>57,?
COc1ccccc1CN1CCCC2(CCN(C(=O)c3csnn3)CC2)C1,>57,?
CCOc1ccc2nc(-c3ccccc3)[nH]c2c1,>57,-12%
O=C(NCCN1CCOCC1)c1ccccc1-c1ccccc1,>57,4%
COCCNC(=O)c1ccccc1NC(=O)CN(c1ccc2c(c1)OCO2)S(C)(=O)=O,>57,1%
CCCCCCC[N+](CC)(CC)CCCCc1ccc(Cl)cc1,>57,-4%[3.58 µM]
O=C(Cn1[nH]c(=O)c2ccccc2c1=O)OCC(=O)N1CCc2ccccc2C1,>57,0%
COc1ccc(CC/C(=N\O)C2(O)CCCCC2)cc1,nt,10%
Cc1oc(-c2ccc(Cl)cc2)nc1CS(=O)CC(=O)N1CCC2(CC1)OCCO2 (centres undefined),>57,4%
Clc1ccccc1NN(Cc1ccccn1)c1ccccc1Cl,>57,-17%[8 µM]
CC(C)(C)c1cnnn1-c1ccc(NC(=O)c2ccc3c(c2)OCO3)cc1,>57,nt
O=C(CCSc1ccccc1)N1CCN(C(=O)c2ccco2)CC1,>57,nt
Cc1cnn(C(=S)NCCc2ccccc2)c1,>57,-1%
c1ccc(-c2noc(-c3cccc4ccccc34)n2)cc1,nt,-27%
COC(=O)[C@@]1(Cc2ccc(OC)cc2)[C@H]2c3cc(C(=O)N4CCCC4)n(CCN4CNCC4=O)c3C[C@H]2CN1C(=O)c1ccccc1,>57,?
COc1ccc2nc(C)cc(SCC(=O)O)c2c1,>57,-19%
COc1ccccc1-c1ccc2ncnc(Nc3ccccc3)c2c1,>57,?
CCn1c(SCC(=O)NC2CCCCC2)nnc1-c1cccs1,>57,5%
COc1ccc(C(c2nnnn2Cc2ccccc2)N2CCN(c3ccccc3)CC2)cc1 (centres undefined),>57,?
Cc1occc1-c1nnc(SCC(=O)Nc2ccccc2)n1CCc1ccccc1,>57,-12%
CC(C)N1C(=O)c2ccccc2C1C(=O)NC1CCCCCC1 (centres undefined),>57,-7%
Cc1nc2cc(CO)ccc2n1C,>57,-11%
CCCS(=O)(=O)N1CCC(C(=O)N2CCN(C(=O)OCC)CC2)CC1,>57,-12%
Cc1cc(C)n(-c2nc3c(c(=O)[nH]c(=O)n3C)n2CC(O)c2ccccc2)n1 (centres undefined),>57,nt
CCSc1nc(O)c(C2OC(=O)c3c2ccc(OC)c3OC)c(=O)n1CC (centres undefined),nt,1%
O=S(=O)(c1ccccc1)N1CCN(Cc2ccccc2C(F)(F)F)CC1,>57,-13%
Cc1oc(-c2ccc(Cl)cc2)nc1CN1CCC(C(=O)N2CCN(Cc3ccccc3)CC2)CC1,>57,-30%
CN1CCc2c(sc3c2C(=O)NC(c2ccc(-c4cccc(Cl)c4)o2)N3)C1 (centres undefined),>57,?
CC(C)n1c(SCC(=O)N2CCCC2)nc2c1c(=O)n(C)c(=O)n2C,>57,-1%
FC(F)(F)c1cccc(-c2nc3nc(Cl)c(Cl)nc3[nH]2)c1,>57,?
COc1cccc(C(=O)Nc2ncc3c(n2)CC(C)(C)CC3=O)c1,>57,1%
CCc1c(C)sc(NC(=O)CC#N)c1C#N,>57,0%
Cc1cccc(-n2nnc(C(=O)N3CCc4ccccc4C3)c2N)c1,>57,?
COc1ccccc1-c1ccc2ncnc(N3CCN(C)CC3)c2c1,>57,?
CCn1c(Oc2ccc(Oc3ncc(Cl)cc3Cl)cc2)nc2c1c(=O)n(C)c(=O)n2C,>57,3%
O=S(=O)(NCc1cccs1)c1cccc(S(=O)(=O)N2CCCCC2)c1,>57,-23%
COc1cccc(NS(=O)(=O)c2ccc3[nH]cc(C(=O)NCCN4CCOCC4)c(=O)c3c2)c1,>57,-5%
O=C(O)CCc1nc(-c2ccc(Cl)cc2)no1,>57,5%
CC(C)(N=NC(C)(C)C1=NCCN1)C1=NCCN1,>57,-1%[8 µM]
CCCS(=O)(=O)N1CCN(C(=O)c2ccc(-c3ccccc3)cc2)CC1,nt,1%
O=C(O)CSc1sc(=S)sc1SCC(=O)O,>57,-13%
COc1cc(C(=O)Nc2nnc(CC(=O)N3CCOCC3)s2)cc(OC)c1OC,>57,-12%
CCS(=O)(=O)N1CCC(C(=O)NCCN2CCN(Cc3ccccc3)CC2)CC1,>57,10%
CC(C)CCn1c(SCCc2ccccc2)nc2c1c(=O)[nH]c(=O)n2C,>57,1%
